From PubChem
GALR2 ag: GALR2 (human) receptor agonism; GALR2-expressing cells, agonist activation read-out; activation, %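 (tested at 5 µM)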; actives 0.48% (n = 140,000); O43603;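 active = above mean plus 3 SD of all compounds, about 5% in these data, not always enough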;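 also: 0% = vehicle buffer wells and 100% = reference agonist at full effect; tested in CHO reporter cells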
Target sequence (O43603 whole entry, looked up): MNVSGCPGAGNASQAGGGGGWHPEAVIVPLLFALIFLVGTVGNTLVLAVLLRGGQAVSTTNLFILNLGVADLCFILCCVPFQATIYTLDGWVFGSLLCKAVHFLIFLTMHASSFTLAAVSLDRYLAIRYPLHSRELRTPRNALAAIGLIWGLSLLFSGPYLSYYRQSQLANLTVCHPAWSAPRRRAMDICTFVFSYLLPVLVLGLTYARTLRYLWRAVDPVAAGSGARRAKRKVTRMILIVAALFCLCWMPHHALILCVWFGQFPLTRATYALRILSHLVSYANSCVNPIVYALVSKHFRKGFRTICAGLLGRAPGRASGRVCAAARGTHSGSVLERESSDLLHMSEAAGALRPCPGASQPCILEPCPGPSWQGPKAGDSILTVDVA
PKD1 inh: PKD1 (human) kinase inhibition | Q15139 | PKD1 kinase fluorescence polarization assay | inhibition, %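 (about 10 µM by stock and volumes)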 | actives 0.056% (n = 200,000) | AID 797;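 active = inhibition of 50% or more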;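 also: controls were vehicle for no effect and a reference inhibitor for full effect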
HSV augment: HSV replication enhancement. actives 0.005% (n = 220,000). AID 1956. maximum fold increase. HSV replication augmentation in cells, fold increase;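 active = peak rise of 1.5-fold or more in the series; inconclusive = self-fluorescent or not available for retest; tested in PC3 cells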;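 also: first round at 10 µM; read as green reporter fluorescence; hits show the peak of a series up to 25 µM; 1 = signal of infected wells without compound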
INS promoter inh: TRM-6 insulin promoter activity inhibition | AID 1273 | actives 0.9% (n = 130,000) | TRM-6 cells (human fetal islet line), insulin promoter-eGFP reporter, imaging; reporter expression induced with tamoxifen | inhibition, % at 2 µM;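 active = inhibition above the mean plus 3 SD, with well images judged a real hit on visual review, cut at about 60% in these data, passing the limit was not always enough; inconclusive = inhibition over the cutoff but images rejected on review; inactive = inhibition not above the cutoff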
RGS16-Gao HTS: modulates binding between human RGS16 and Galphao; bead-based flow cytometry RGS16-Galphao binding, fluorescence; actives lie on both sides; binding response (% of control), % at 10 µM; actives 0.38% (n = 220,000); AID 1441;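 active = below 25% or above 175%, edge rows of some plates excepted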;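 also: Galphao activated by GDP with aluminum fluoride before binding; 100% = wells without compound and 0% = beads without RGS; some results beyond the cut were filed as inactive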
Target sequence (O15492 whole entry, looked up): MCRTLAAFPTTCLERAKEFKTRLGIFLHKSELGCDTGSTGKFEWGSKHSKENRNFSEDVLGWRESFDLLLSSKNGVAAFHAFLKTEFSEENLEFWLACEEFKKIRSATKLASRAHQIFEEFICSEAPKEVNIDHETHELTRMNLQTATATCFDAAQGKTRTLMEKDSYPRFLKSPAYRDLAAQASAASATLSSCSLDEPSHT
Target sequence (P09471 whole entry, looked up): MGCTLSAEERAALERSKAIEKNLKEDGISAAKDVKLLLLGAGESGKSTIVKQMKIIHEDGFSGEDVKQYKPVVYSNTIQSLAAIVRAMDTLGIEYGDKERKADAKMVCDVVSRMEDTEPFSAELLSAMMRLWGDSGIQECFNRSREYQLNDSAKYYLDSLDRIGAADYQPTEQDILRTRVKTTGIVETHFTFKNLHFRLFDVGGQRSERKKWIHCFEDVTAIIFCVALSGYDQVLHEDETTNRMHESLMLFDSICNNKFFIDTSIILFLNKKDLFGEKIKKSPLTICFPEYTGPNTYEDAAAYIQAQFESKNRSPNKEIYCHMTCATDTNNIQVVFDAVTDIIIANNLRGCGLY
INS promoter inh cell count: further read-out of INS promoter inh, marked with its call; normalized cell count, %; measured here: cell count, toxicity; reference of the scale not given here;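 cells exposed to compound for 48 h; stained nuclei by imaging scaled within each plate; lower means fewer cells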
HSV augment primary fold: second read-out of HSV augment, no call of its own (marks repeat the call); fold increase; compound at 10 µM; measured here: primary screen fold increase 10 uM; tested in PC3 cells;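 GFP signal in the first replicate; 1 = infected wells without compound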
The depositor's hits bear a star; i = inactive; ? = inconclusive; . = no result given.

SMILES	GALR2 ag	PKD1 inh	HSV augment	HSV augment primary fold	INS promoter inh	INS promoter inh cell count	RGS16-Gao HTS
C=CCn1c(SCC(=O)C23CC4CC(CC(C4)C2)C3)nc(O)cc1=O	.	.	i	1.1	.	.	103
C=CCN(c1cccc(C(F)(F)F)c1)S(=O)(=O)c1cccc(C(=O)OCC(=O)NCCC)c1	0.5	2	i	1.1	.	.	103
Cc1ccc2c(c1)C(SCC(=O)NCCc1ccccc1)CC1(CCCC1)O2 (centres undefined)	-1.4	-9	.	.	-75	100	96
NC(=S)NNC(=S)Nc1ccccc1	.	-1	i	1.1	.	.	101
Cn1c(N)c(C(=O)Nc2ccccc2F)sc1=S	.	.	i	0.99	.	.	102
COc1ccc(S(=O)(=O)N2CCCC2C(=O)Nc2nnc(-c3cccnc3)s2)cc1 (centres undefined)	-1.1	7	i	0.89	.	.	84
Cc1ccc(O)c(NC(=O)c2noc3c2CCCCC3)c1	.	3	i	0.93	-31	87	102
COc1ccc(NC(=O)CN2CCC(NC(=O)C3CCCCC3)CC2)c([N+](=O)[O-])c1	.	1	i	1	-19	93	95
CN1/C(=C/C(=O)C2CC2)C(C)(C)c2ccccc21	.	-3	i	0.96	-22	78	74
CNC(=O)Nc1cc(C(F)(F)F)cc(C(F)(F)F)c1	.	.	i	1.1	.	.	104
O=C(O)c1cc(O)c2c(c1)C(=O)c1cc(O)cc(O)c1C2=O	.	0	i	0.94	.	.	105
O=C(c1cc(-c2cccs2)nc2ccccc12)N1CCN(S(=O)(=O)c2cccc(F)c2)CC1	0.6	-1	i	0.98	-47	157	101
CC1CCN(C(=O)CSc2nnc(CNC(=O)COc3ccc(Cl)cc3)o2)CC1	-0.1	-3	i	1	-50	95	99
CCN1CCN(Cc2nc3c(c(=O)n(C)c(=O)n3C)n2Cc2ccccc2Cl)CC1	-1.8	0	i	0.94	.	.	114
OCCCc1nc2n(n1)C(c1ccccc1Cl)C=C(c1cccs1)N2 (centres undefined)	1.0	-21	?	.	32	157	97
CCc1nnc(NC(=O)CSc2nnc(-c3ccccc3O)n2CC)s1	-1.9	-2	i	0.94	27	139	101
CCOC(=O)c1cc2nc(Nc3ccc(OC)cc3)sc2s1	11	7	i	0.92	-19	106	103
Cc1ccc2c(c1)NC(=O)C(CC(=O)NCCCN1CCN(c3cc(C)ccc3C)CC1)O2 (centres undefined)	-3.0	-1	.	.	.	.	103
COC(=O)c1c(-c2c(Cl)cccc2Cl)noc1NC(=O)NN1CCOCC1	.	.	i	1.1	.	.	105
Cn1cnnc1SCC(=O)Nc1ccccc1C(=O)NC1CC1	-0.3	0	i	0.93	-50	54	107
c1ccc(-c2cn3nc4c(nc3n2)CCCC4)cc1	2.1	17	i	1.2	-6	69	98
CCCCNC(=O)c1onc(CSc2cccc(OCC)c2)c1C(=O)O	-0.6	7	i	0.73	.	.	100
CN(CC(=O)Nc1ccccc1Cl)CC(=O)Nc1c(F)cccc1F	.	-6	i	0.83	.	.	96
O=C(COC(=O)/C=C/c1ccc(Cl)cc1)NCCC1=CCCCC1	-0.4	-7	i	0.85	8	76	105
N#C/C(=C\c1ccccc1)C(=O)Nc1cccnc1	.	.	i	1.2	.	.	101

Full records from above.
O=C(COC(=O)/C=C/c1ccc(Cl)cc1)NCCC1=CCCCC1 in the list: GALR2 ag = -0.4; PKD1 inh = -7; HSV augment = i; HSV augment primary fold = 0.85; INS promoter inh = 8; INS promoter inh cell count = 76; RGS16-Gao HTS = 105
Cn1cnnc1SCC(=O)Nc1ccccc1C(=O)NC1CC1 in the list: GALR2 ag = -0.3; PKD1 inh = 0; HSV augment = i; HSV augment primary fold = 0.93; INS promoter inh = -50; INS promoter inh cell count = 54; RGS16-Gao HTS = 107
CC1CCN(C(=O)CSc2nnc(CNC(=O)COc3ccc(Cl)cc3)o2)CC1 in the list: GALR2 ag = -0.1; PKD1 inh = -3; HSV augment = i; HSV augment primary fold = 1; INS promoter inh = -50; INS promoter inh cell count = 95; RGS16-Gao HTS = 99

New compounds follow
SMILES	GALR2 ag	PKD1 inh	HSV augment	HSV augment primary fold	INS promoter inh	INS promoter inh cell count	RGS16-Gao HTS
CC(C)N(Cc1nccn1C)C(=O)c1ccc(OC2CCN(C(=O)C3CC3)CC2)cc1	.	-6	i	1	.	.	100
Cc1ccn2c(-c3csc(NCc4ccco4)n3)c(C)nc2c1	-0.6	-3	i	1	.	.	93
NC(=O)CN(c1ccc([N+](=O)[O-])cc1)S(=O)(=O)c1ccccc1	.	7	i	1	63	111	103
CC1CCN(c2nnc(N3CCC(C)CC3)c3ccccc23)CC1	.	4	.	.	.	.	11*
O=C(CCCCCNC(=O)c1ccccc1)N/N=C/c1ccc(O)cc1O	-0.9	3	i	1	-11	99	99
CC(=O)c1ccccc1OCC(O)CN1CCN(CCN2C(=O)c3cccc4cccc(c34)C2=O)CC1 (centres undefined)	.	3	i	0.79	.	.	98
O=C(CCN1CCCCCC1)Nc1ccc(F)c(F)c1	-2.3	-12	i	0.97	.	.	104
CSc1nc(C)cc(OCC(=O)N2CCOCC2)n1	-0.9	-5	i	0.86	-32	157	88
COc1cc(-c2ccc(NC(=O)CN3CCC(C)CC3)c(OC)c2)ccc1NC(=O)CN1CCC(C)CC1	-1.7	-16	.	.	.	.	181
COC(=O)CNC(=O)c1cn(CC(C)C)c(=O)c2cc(OC)c(OC)cc12	-0.5	-3	i	1.1	-10	68	102
COc1ccc(/C=C/C(=O)NC(=S)NNC(=O)c2cccs2)cc1OC	.	.	i	1.1	.	.	111
COc1cccc(C(=O)Oc2cccc(N3C(=O)C4C5CC(C(Br)C5Br)C4C3=O)c2)c1 (centres undefined)	-1.8	0	i	1	8	76	91
CC(=O)c1ccc(Cc2ncc(C(F)(F)F)cc2Cl)s1	-1.3	7	i	0.9	0	93	100
CCOC(=O)N1CCC(NC(=O)COc2cc(=O)n(C)c3ccccc23)CC1	-1.8	-4	i	0.98	.	.	102
CSc1nc(-c2ccco2)nn1C(=O)c1ccco1	-0.9	-13	i	0.72	.	.	103
COc1ccc(CCNC(=O)C(=O)Nc2ccc3c(c2)OCCO3)cc1OC	.	2	i	0.97	.	.	108
Cc1cc(NCCCN2CCOCC2)n2ncc(-c3ccc(Cl)cc3)c2n1	-1.1	2	i	0.61	.	.	101
O=C(CSc1nc2ccccc2s1)N1N=C(c2cccs2)CC1c1ccc(F)cc1 (centres undefined)	-3.4	1	i	0.98	30	112	102
O=C(CN(C1CCCCC1)S(=O)(=O)c1ccc(Br)cc1)NCc1ccncc1	.	-2	i	1	.	.	47
O=C(CN(C(=O)CCC(=O)Nc1nccs1)C1CCCC1)NCc1ccc2c(c1)OCO2	.	-8	i	0.78	.	.	100
COc1ccccc1NC(=O)N1CCN(C)CC1	.	-7	i	0.93	.	.	99
O=C(Nc1cc(S(=O)(=O)N2CCCC2)ccc1OCC(F)(F)F)c1ccc(F)cc1	-0.1	-3	i	0.97	7	84	107
Cc1c(C(=O)NCCCN2CCCC2=O)oc2ccccc12	-1.5	0	i	1	-360	124	105
CCn1c(=O)n(CC)c2cc([N+](=O)[O-])ccc21	1.0	-2	i	1	16	79	107
CCc1ccc(N(CC(=O)Nc2sc3c(c2C(=O)OC)CCCC3)S(C)(=O)=O)cc1	-0.5	-14	i	0.81	-7	142	111
SMILES	GALR2 ag	PKD1 inh	HSV augment	HSV augment primary fold	INS promoter inh	INS promoter inh cell count	RGS16-Gao HTS
O=C(NCc1ccco1)C1CCCN1C(=O)Nc1ccc(Cl)cc1 (centres undefined)	.	2	i	0.87	-64	139	113
COc1ccc(/C(C)=N/Nc2ccccc2Cl)c(O)c1	.	.	i	1.2	.	.	101
Cc1ccc(NC(=O)C(Nc2ccccc2)c2ccccc2)cc1 (centres undefined)	-1.1	2	i	1	-70	56	37
c1ccc2[nH]c(CN3CCCCC3)nc2c1	-1.1	-1	i	0.85	29	245	99
CN(C)c1ncc(S(=O)(=O)c2ccc(Cl)cc2)c(-c2ccc(Cl)cc2Cl)n1	-1.2	-2	.	.	0	88	105
CCc1nnc(NC(=O)CCC(=O)N2CCN(Cc3cc(F)ccc3OC)CC2)s1	-0.9	-2	i	0.97	.	.	102
COc1ccc(CSc2nncn2N)cc1Br	-4.8	0	i	1.1	.	.	97
CCCCOCCCNC(=O)c1ccc(NC(C)=O)cc1	-0.7	-4	i	0.69	10	82	103
S=c1[nH]nc(COc2ccc(Cl)cc2)n1Cc1ccco1	.	4	i	1	.	.	98
CCc1ccc(OCC2c3cc(OC)c(OC)cc3CCN2C(=S)NCCOC)cc1 (centres undefined)	1.0	0	i	0.96	.	.	103
O=C(CSc1nc2ccccc2[nH]1)NC1CCCc2ccccc21 (centres undefined)	-1.2	-4	i	0.93	.	.	103
NC(=O)c1cccnc1Nc1cccc(F)c1	-1.4	-11	i	1.1	87*	150*	100
CCOC(=O)C1CCN(C(=O)CCNC(=O)Cn2ccc3ccccc3c2=O)CC1	-3.2	5	i	0.75	.	.	105
Cc1ccnc(SCCn2c(N3CCCCC3)nc3c2c(=O)[nH]c(=O)n3C)n1	-3.5	8	i	0.95	.	.	101
Cc1ccc2nc(NC(=O)[C@H](C)N3C(=O)C4CC=CCC4C3=O)sc2c1 (some centres undefined)	.	-3	i	0.97	11	77	110
COc1ccc(-c2nc(CSCC(=O)N3CCN(C(=O)c4ccco4)CC3)c(C)o2)cc1OC	-2.6	1	i	1.1	.	.	127
COc1ccccc1/C=C/C(=O)N1CCCC1	-1.2	4	i	1.1	-3	130	101
CSc1ccc(Cl)c(C(=O)Nc2ccc(OCC(N)=O)cc2)c1	-1.9	3	i	1	17	104	102
Cc1[nH]n(-c2ccccc2)c(=O)c1C=Nc1cccc(F)c1	.	.	i	1.1	.	.	110
Nc1cc2c(cc1O)CCCC2	.	-3	i	0.97	.	.	92
COc1ccc(C/C(C)=N/NC(=O)c2ccc(C)cc2C)cc1	.	1	i	1.1	-50	62	90
COc1ccc(S(=O)(=O)N2CCN(C(=O)c3ccco3)CC2)cc1OC	-3.0	-5	i	0.95	8	133	98
COc1ccccc1N1CCN(S(C)(=O)=O)CC1	-1.8	-3	i	0.77	50	145	100
OCCC1CN(Cc2cccn2-c2nccs2)CCN1Cc1ccc(F)c(F)c1 (centres undefined)	.	-6	i	0.99	.	.	98
CCOC(=O)c1oc2cccc(OC(C)=O)c2c1C	-1.2	1	i	0.85	-286	29	100
SMILES	GALR2 ag	PKD1 inh	HSV augment	HSV augment primary fold	INS promoter inh	INS promoter inh cell count	RGS16-Gao HTS
O=C(COC(=O)/C=C/c1cccc(Cl)c1)NCCc1ccccc1	-1.9	-5	i	1.1	27	71	105
c1ccc(SSc2ccccc2)cc1	-0.8	-6	i	1.1	0	75	-4.9*
COC(=O)Cn1cnc2c(cnn2-c2ccccc2)c1=O	.	0	i	0.96	.	.	100
CC(=O)Nc1ccc(S(=O)(=O)Oc2ccc(/C=C3\SC(N)=NC3=O)cc2)cc1	.	5	i	0.94	29	76	105
COC(=O)c1ccccc1NC(=O)CN1CCN(C(=O)c2ccco2)CC1	-0.5	-1	i	0.79	3	119	103
CCN(CC)c1ccc(/C=C/C(=O)c2cccnc2)cc1	.	-1	i	1	41	32	116
CN1CCC(N(C)C(=O)/C=C/c2cn(-c3ccccc3)nc2-c2cccs2)CC1	.	-8	i	0.75	-133	96	100
CCOc1ccc(CN2CCN(CC3=Cc4cccc(OC)c4OC3)CC2CCO)cc1 (centres undefined)	.	-4	i	0.85	-13	76	107
COc1ccc(C(=O)NC(=S)NCc2cccnc2)cc1Br	.	4	i	0.98	-18	82	93
CCOC(=O)N1CCN(CC(=O)N2c3ccccc3CC2C)CC1 (centres undefined)	-4.0	5	i	0.88	-114	119	97
N/C(=N\OC(=O)CCC1CCCC1)c1cccnc1	-0.9	4	i	1.6	.	.	103
CC(C)(C)S(=O)(=O)c1cnc(-c2ccccn2)nc1N	.	.	i	0.99	.	.	101
COc1ccc2cc(CCNC(=O)c3cccs3)c(=O)[nH]c2c1	-1.6	-8	i	0.94	-14	92	.
O=C(c1ccco1)N1CCN(C(=O)c2ccc(COc3ccc4c(c3)CCC4)o2)CC1	-0.5	1	i	0.89	23	95	31
Cc1cc(C)c(Cc2c(C)nc3c(C(=O)NCc4ccco4)cnn3c2C)c(C)c1	-0.7	-2	i	0.84	3	116	101
Nc1nc(COc2ccc(F)cc2)nc(N2CCCCC2)n1	.	0	i	0.9	.	.	105
CC(=O)Nc1ccc(N2CCOCC2)c([N+](=O)[O-])c1	.	-3	i	0.92	.	.	104
COc1ccc(NS(=O)(=O)c2cc(NC(=O)CC3CCCC3)ccc2N2CCOCC2)cc1	.	-3	i	0.8	.	.	96
